Screening results: PubChem BioAssay, Broad Institute
Tgondii IFNg: inhibitors of Toxoplasma gondii growth with IFN-gamma; activity change, negative = inhibition, %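 (about 20 µM by stock and volumes)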; 3.8% of 69,000 active; Toxoplasma gondii growth in IFN-gamma-treated host cells; stronger effect = lower value; reference of the scale not given here; AID 1259416;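 active = below -70%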;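 also: host cells are HeLa cells infected with Toxoplasma gondii; parasite growth read as luciferase light; one replicate is shown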
Numbers without * were called inactive; i = inactive; & = joins results of further samples. Not all compounds are listed (hit frequency here may not be typical).

SMILES | Tgondii IFNg
CCCC#Cc1ccc([C@@H]2[C@H]3CN(C(=O)Nc4cccc(F)c4)CC(=O)N3[C@H]2CO)cc1 | -37.9
Clc1ccc(SCc2csc(-c3ccno3)n2)cc1 | -23.1
CNC(=O)c1cc(=O)n(CC(=O)Nc2sc3c(c2C(=O)OC)CCC3)c2ccccc12 | -9.8
CCn1ncc(C(=O)N(C)Cc2cc(-c3ccncc3)no2)c1C | 1.5
COc1cc(C(=O)N2CCC(n3nnc4cc(F)ccc43)CC2)cc(OC)c1OC | 2.3
Cc1ccc(N2CCCc3sc(C(=O)N(C)C)nc32)nn1 | 59.3
O=C(O)c1cccc(CC2CCN(C(=O)C3CCOC3)CC2)c1 (stereo not given) | 7.5
C=CCOCC1CC2OCCN(C(=O)NCc3cccnc3)C2C1 (stereo not given) | 37.5
OCC1CCCCN1CCn1cnnc1 (stereo not given) | 36.6
CNC(=O)C(C)N(C)Cc1cnc(-c2ccccc2C)s1 (stereo not given) | -13.9
CCN1c2cc(F)ccc2C(=O)NC12CCN(C(=O)c1ccccc1C)CC2 | 149.9
COCC1c2c(cnn2CC2CC2)CCN1Cc1cc(C)on1 (stereo not given) | -5.2
O=C(O)CCCC(=O)N1CCN(c2ncccn2)CC1 | -9.9
CN(C(=O)CSc1ccc(Cl)cc1)c1ccccc1C(=O)NC1CCCCC1 | -49.3
Cc1oc(C2CCN(S(=O)(=O)c3cccc(C#N)c3)CC2)nc1C(=O)N(C)C | 92.4
Cc1ccc(C(NC(=O)c2cc3ccc(N(C)C)cc3[nH]2)c2ccncc2)cc1 (stereo not given) | -67.5
Cc1ccc(NC(=O)c2c(O)c3cccnc3n(-c3cccc(F)c3)c2=O)cc1C | 18.4
CCOC(=O)NC(Nc1ccc(S(N)(=O)=O)cc1)(C(=O)OCC)C(F)(F)F (stereo not given) | 46.9
CCCC(=O)N1CC2(CN(C(=O)NC(C)C)C2)c2c([nH]c3cc(OC)ccc23)[C@H]1CO | 249.1
CC(C)CN1CC(C(=O)NCc2cc(C(C)C)no2)CC1=O (stereo not given) | 5.9
Cc1oc(C2CCN(C(=O)c3ccncc3)CC2)nc1C(=O)N1CCCC1 | 29.4
COc1cc(C(=O)Nc2ccc(-c3nc(-c4ccc(C)cc4C)co3)cc2)cc(OC)c1OC | -0.3
CCN(CC)C(=O)c1cc(C)nc2c1c(=O)n(Cc1nc(-c3ccccc3Cl)oc1C)c(=O)n2C | -21.9
c1ccc2c(c1)CNCC21CCN(CC2CC2)CC1 | -29.9

5 neighbouring compounds out of the list so far:
SMILES | Tgondii IFNg
CC(C)CN1CC(C(=O)NCc2cc(C(C)C)no2)CC1=O (stereo not given) | 5.9
Cc1oc(C2CCN(C(=O)c3ccncc3)CC2)nc1C(=O)N1CCCC1 | 29.4
COc1cc(C(=O)Nc2ccc(-c3nc(-c4ccc(C)cc4C)co3)cc2)cc(OC)c1OC | -0.3
CCN(CC)C(=O)c1cc(C)nc2c1c(=O)n(Cc1nc(-c3ccccc3Cl)oc1C)c(=O)n2C | -21.9
c1ccc2c(c1)CNCC21CCN(CC2CC2)CC1 | -29.9

New compounds follow:
SMILES | Tgondii IFNg
Cc1noc(C)c1NC(=O)N(C)C[C@@H]1OCc2cnnn2CCCC(=O)N([C@@H](C)CO)C[C@H]1C | 35.2
O=C1CSCC(=O)N1c1ccc(Cl)cn1 | 37.8
COc1ccc2c(c1)NC1(CCN(C(=O)c3ccccc3F)CC1)c1cccn1-2 | 40.3
CC[C@@H]1C/C=C\C[C@@H](C(C)C)NC(=O)CCC(=O)N1 | -25.5
O=C(c1ccc(F)c(F)c1)N1CCN(c2nc3c(c(=O)[nH]2)CCCC3)CC1 | -2.6
COc1ccc(-c2cc(C3CCN(C(C)=O)CC3)ccn2)cc1 | 73.7
Cc1noc(C)c1S(=O)(=O)Nc1ccc2c(c1)C(=O)N([C@H](C)CO)C[C@@H](C)[C@H](CN(C)C(=O)NC1CCCCC1)O2 | -12.9
CCn1cc(-c2c(-c3ccccc3)ncn2Cc2ccc(O)c(OC)c2)c(C)n1 | -10.1
COc1ccc(C#Cc2cccc(-c3nc(C(=O)N4CCN(Cc5ccccc5)CC4)cc4c3[C@@H](CCO)N(S(=O)C(C)(C)C)C4)c2)cc1OC (stereo not given in full) | -48.2
O=C(Cn1c(=O)cc(C(=O)N2CCCCC2)c2ccccc21)NCCc1ccccc1 | -44.2
CS(=O)(=O)N1CCCC12CCCN(C(=O)c1ccno1)C2 (stereo not given) | 92.5
CCC(=O)N1CCc2cc(S(=O)(=O)N3CCC(n4nc(C)cc4C)CC3)ccc21 | -2.3
COc1ccc(Cl)cc1NC(=O)CN1CCN(C(=O)N2CCOCC2)CC1 | -13.4
COCC(=O)N1CCn2c(CNC(=O)c3cccn3C)cnc2C1 | -22.8
CC(NC(=O)CCCN1C(=O)CCC1=O)c1cc2cc(Cl)ccc2o1 (stereo not given) | 4.7
CCN(C(=O)Cc1cc(Cl)c2c(c1)OCCCO2)C1CCN(C)CC1 | -9.5
Cc1oc(-c2ccoc2)nc1CN1CCCCC1CCc1ccccc1 (stereo not given) | -6.1
CCCn1ncc(C(=O)NCCC2CN(C)CCO2)c1C (stereo not given) | 3.8
COc1ccc(-c2nc(C)c(CCNC(=O)C(=O)Nc3ccc(C)c(F)c3)s2)cc1OC | 42.2
O=C(CCc1ccc(-c2ccc(Cl)cc2)[nH]1)N1CCCC(O)(CO)CC1 (stereo not given) | -15.1
COc1ccc(-c2[nH]ncc2CN[C@@H]2CCC[C@H]2Cc2cc(C)no2)cc1 | -13.2
CC(O)CNCc1ccc(-c2ccc(F)cc2)o1 (stereo not given) | -20.1
CC(NC(=O)c1cc(CN2CCOCC2)on1)c1ccccc1-n1cccn1 (stereo not given) | -21.0
Cc1ccccc1-c1ccc(C2[C@H]3CNC[C@@H]2N3Cc2ccc3c(c2)OCO3)cc1 (stereo not given in full) | -46.7&-36.2
Cc1cc(C)n(CCNC(=O)c2cccc3c2NCCC3)c(=O)n1 | -6.0
NC(=O)c1cncc(/C=C/c2ccccc2)c1 | -20.3
COc1ccccc1-c1noc(C)c1C(=O)Nc1ccc(Cn2cncn2)cc1 | -11.5
COc1ccc(C)cc1NC(=O)c1nc(Nc2ccccc2)c2ccccc2n1 | 18.8
CCN1C(=O)CO[C@H]2CN(C(=O)c3cnc4ccccc4c3)C[C@@H]21 | -24.9
Cc1cc(C(F)(F)F)cc(Oc2ccc(-c3ccnc(N)n3)cc2)n1 | -5.6
Cc1n[nH]c(C)c1CCc1n[nH]c(=O)n1C1CCCCC1 | -46.9
Cc1cccc(-c2nc(Cn3nnc(C(=O)NCc4ccc(Br)cc4)c3C)c(C)o2)c1 | -32.0
OC[C@@H]1[C@H](c2ccc(C#CC3(O)CCCC3)cc2)[C@@H]2CN(Cc3cncnc3)CCCCN12 | -5.5
COc1ccc2[nH]c(=O)c(CNc3c(C)cc[nH]c3=O)cc2c1 | 139.3
O=C(c1ccc2nc[nH]c2c1)N1CCCC(CCc2ccccc2)(C(=O)O)C1 (stereo not given) | 12.2
O=C(CCn1cnc2ccccc21)N1CC[C@@H](c2ccccc2)[C@H](O)C1 | -9.6
Cc1ccc(CN2CCCn3nnc(COCC4CC4)c3C2)s1 | -26.0
CCOc1cccc(-c2noc(-c3nnn(Cc4nc(-c5ccc(OC)cc5)oc4C)c3C)n2)c1 | -0.6
CCCN1[C@H](CO)[C@H](c2ccc(C#Cc3ccccc3)cc2)[C@@H]1CNC1CCCC1 | -40.1
Cc1cc(-c2ccc3c(c2)OCO3)cnc1N | 51.8
CCCCN(C(=O)c1ccc(NC(C)=O)cc1)C1(C(=O)NCc2ccccc2)CCN(C(C)=O)CC1 | 12.5
O=C(c1ccccn1)N1C[C@@H]2[C@H](c3ccccc31)[C@H](CO)N2C(=O)Nc1ccccc1Cl | -5.6
O=C(NCc1ccco1)C(Sc1ccccc1)c1ccccc1 (stereo not given) | -2.5
CC1(C)CCC(C)(C)c2cc(NC(=O)c3ccc(C(=O)O)cc3)ccc21 | 29.6
CCOCC(=O)N1CCOCC1c1csc(C)n1 (stereo not given) | 6.7
Cc1ccc(N2CCC3(CC2)C(=O)N(CCN(C)C)CCN3C)nn1 | -0.2
Cc1ccc(-c2nc(C)c(CCNC(=O)C(=O)Nc3cc(Cl)ccc3C)s2)cc1 | 0.1
Cc1ccsc1CNc1ccc(C(=O)N2C[C@H](OC(C)C)[C@@H](O)C2)cc1 | -9.1
CNC(=O)c1cc(=O)n(CC(=O)Nc2ccc3c(c2)OCCO3)c2ccccc12 | -6.2
OCCN1C[C@H]2c3ccccc3C(OCC3CC3)[C@@H]2C1 (stereo not given in full) | 29.4
Cc1nc(CC(=O)N2CCCC2c2nc(N(C)C)ncc2-c2ccc(Cl)cc2)cs1 (stereo not given) | -60.8
OC[C@@H]1[C@H](c2ccccc2)C2(CN(Cc3ccccc3F)C2)N1Cc1ccccc1F | -68.2
O=C(NCCc1ccc(Cl)cc1)C12CC3CC(CC(C3)C1)C2 | -32.4
CCOc1ccccc1NC(=O)N(Cc1ccncc1)C1CCN(C)CC1 | 11.7
Cc1nc(CC(=O)N2CCCC3(CC2)CN(C)C(=O)O3)cs1 (stereo not given) | 0.5
CC(=O)N1CC2(CCN(C(=O)c3ccc4c(c3)OCCO4)CC2)CC1C(=O)O (stereo not given) | 4.3
c1ccc2c(c1)COC(c1cnc(N3CCOCC3)nc1)N2 (stereo not given) | 86.5
Cc1ccc(-c2nc(Cn3nnc(-c4nc(-c5ccc(C(F)(F)F)cc5)no4)c3C)c(C)o2)cc1 | -25.8
CC(C)[C@H]1C/C=C\CCNC(=O)[C@H](C)CC(=O)N1 | 1.3
Cc1nn(C)c(C)c1CCC(=O)NC(C)c1ccccc1-n1cccn1 (stereo not given) | -47.0

Other records
SMILES | Tgondii IFNg
CCc1nc(CN(C)C(=O)C2CC(C(C)C)=NO2)no1 (stereo not given) | -1.0
Cc1nc(-c2ccccc2)c(C(=O)N2CCCC3(CC2)CNC(=O)O3)s1 (stereo not given) | -5.7
Nc1ccccc1SCC(O)COc1cccc(C(F)(F)F)n1 (stereo not given) | -56.8
CCCNC(=O)N1CCC2(CC1)Nc1cc(F)ccc1-n1cccc12 | i
CC(C)(C)OC(=O)N1CCCC1C(=O)NC(Cc1ccccc1)C(=O)O (stereo not given) | 15.5
O=C(c1ccsc1)N1Cc2nccn2CC(CN2CCCC2)C1 (stereo not given) | 65.6
Cc1ccc(C(=O)NCCc2sc(-c3cccc(C)c3)nc2C)cc1 | i
CN1C(=O)CC2C1CCN2S(=O)(=O)Cc1ccccc1 (stereo not given) | -41.4
Cc1ncc(CN2CCN(Cc3cccc(F)c3)CC2)n1C | 1.2
O=C(/C=C/c1cccnc1)NCCCCC1CCN(C(=O)c2ccccc2)CC1 | -48.4
CCOC(=O)C1CCCN(S(=O)(=O)c2cc(-c3nc(C)c(C)s3)sc2C)C1 (stereo not given) | -2.3
COc1cc2c(cc1OC)[C@@H](C1CC=CCC1)N[C@@H](c1ccc(C)cn1)C2 (stereo not given in full) | -9.6
COc1ccc(NC(=O)N(C)C[C@H]2Oc3c(NS(=O)(=O)c4c(C)noc4C)cccc3C(=O)N([C@@H](C)CO)C[C@H]2C)cc1 | -50.9
COc1ccc(Cl)cc1S(=O)(=O)N1CCC2(CC1)Nc1ccc(C)c(C)c1-n1cccc12 | 15.7
CN(C(=O)Cn1nc(-c2ccoc2)oc1=O)C1CCCCC1 | -5.7
CCOc1cccc2cc(-c3nc(-c4ccccc4)c4cc(Cl)ccc4n3)c(=O)oc12 | -52.5
CC(=O)N(CC(O)CN(C(C)=O)c1c(I)c(C(=O)NCC(O)CO)c(I)c(C(=O)NCC(O)CO)c1I)c1c(I)c(C(=O)NCC(O)CO)c(I)c(C(=O)NCC(O)CO)c1I (stereo not given) | 12.5
O=C(c1cc(-c2ccccc2)nc2ccccc12)N1CCCc2ccccc21 | -10.0
Cc1cccc(NC(=O)N2CCC(c3nc(C(=O)N4CCCC4)c(C)o3)CC2)c1 | -19.3
Cc1ncc(C(=O)NCc2ccccc2)c(CCNC(=O)c2ccccc2)n1 | -13.2
NCC1Cc2cc(-c3ccc(C(=O)N4CCCC4)o3)cc(Cl)c2O1 (stereo not given) | -8.4
CC(=O)N1CCCCN2[C@@H](CO)[C@@H](c3ccc(-c4ccccc4)cc3)[C@@H]2C1 | -13.4
COc1ccc(Nc2nc(CC(C)=O)ns2)cc1OC | 2.4
Cc1nc(N2CCN(c3cc(=O)[nH]nc3-c3ccccc3)CC2)c2cnn(C)c2n1 | -84.0*
Cc1cc(C(=O)NCCSc2nnc(C)s2)c2ccc(F)cc2n1 | -43.4
C=CCOCc1nnn2c1CN(Cc1csc(C)n1)CCC2 | 4.0
C[C@@H]1CN2C[C@H](O)CC2CN1Cc1cccc2nccnc12 (stereo not given in full) | -27.6
O=c1cc(CCc2cccc(Cl)c2)nc2c(CN3CCNCC3)c[nH]n12 | 24.7
CO[C@H](CN(C)C(=O)c1cnccn1)[C@@H](C)CN([C@@H](C)CO)S(=O)(=O)c1ccccc1 | 71.4
CCN(CC)CC#CC1(O)CCCCC1 | 6.0
COc1ccc(-c2cc(C(=O)Nc3nc(-c4cnn(C)c4)cs3)nn2C)cc1 | 31.2
O=c1[nH]c2ccccc2n1C1CCN(S(=O)(=O)NCc2ccccc2)CC1 | -10.6
CO[C@H]1CN(C)C(=O)c2ccc(NC(=O)c3ccccc3F)cc2OC[C@@H](C)N(C)C[C@H]1C | 74.4
C[C@H](CO)N1C[C@H](C)[C@H](CN(C)C(=O)Cc2ccccc2)OCCCC[C@H](C)Oc2ccc(NS(C)(=O)=O)cc2C1=O | 102.6
COc1ccc(CNC(=O)C[C@@H]2C=C[C@@H](NC(=O)c3cccc(F)c3)[C@H](CO)O2)cc1 | -10.4
O=C(C[C@H]1C=C[C@H](NC(=O)Cc2ccccn2)[C@@H](CO)O1)NCCc1ccncc1 | 60.3
